Methyltransferases – Primary Screen for Target Class Profiling of Small Molecule Inhibitors of Methyltransferases. purified enzyme, MTase-Glo SAH luminescence; stronger effect = lower value. calls only at 40 µM. 25,000 tested, 3.9% active; active = -50% or lower on at least one of six enzymes; inconclusive = the cases between; inactive = as a rule above -30% on all six;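 note: enzymes were COMT GAMT GNMT HNMT NNMT and PNMT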
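Each enzyme was assayed with SAM and its substrate. SAH formation detected by MTase-Glo luminescence; single-point 40 uM screen[…].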
Calls only; i = inactive; ? = inconclusive; + = active, no number; ! = not active in a repeat. % is set by controls: 0 for no effect and ±100 for the full control effect. Only part of the results is shown (hit frequency here may not be typical).

cpd | mol | Methyltransferases
1 | Cc1onc(-c2ccccc2Cl)c1C(=O)N[C@@H]1C(=O)N2[C@@H]1SC(C)(C)[C@@H]2C(=O)O | i
2 | O=C(NCC(O)CO)c1ccncc1Nc1ccc(I)cc1F (stereo unspecified) | i
3 | Cc1cnc(Nc2cccc(CN3CCOCC3)c2)nc1Nc1cccc(S(=O)(=O)NC(C)(C)C)c1 | i
4 | COc1cncc(C#Cc2ccccn2)c1 | i
5 | CC(C)NC(=O)c1ccc(C#Cc2ccncc2)cn1 | i
6 | CCCCNc1ncc2c(-c3ccc(CN4CCN(C)CC4)cc3)cn(C3CCC(O)CC3)c2n1 (stereo unspecified) | i
7 | CCc1cc(CN2CC(C(=O)O)C2)sc1-c1noc(-c2ccc(Oc3ccccc3)cc2)n1 | i
8 | CCC(CC)C(c1ccc(Nc2nc3ccccc3s2)cc1)n1cncn1 (stereo unspecified) | +
9 | Cc1c(C2=CCN(C(=O)N(C)C(C)C)CC2)nnn1-c1cccnc1F | ?
10 | CCN(CC)CCCCNc1ncc2cc(-c3c(Cl)cccc3Cl)c(NC(=O)NC(C)(C)C)nc2n1 | +!
11 | COc1cc(Nc2nc3c(s2)CCCC3c2ccc(F)cc2)ccc1-n1cnc(C)c1 (stereo unspecified) | ?
12 | C[C@@H]1CN(Cc2ncccn2)C[C@H]1c1nc2c(cnn2C2CCOCC2)c(=O)[nH]1 | i
13 | CN(C)c1nc(Cc2ccc(NC(=O)c3ccc(C(F)(F)F)cc3)cc2)nc(N(C)C)c1CC(=O)O | i
14 | Cn1ncc(Cl)c1-c1cc(C(=O)N[C@H](CN)Cc2ccc(F)c(F)c2)oc1Cl | ?
15 | C[C@@H](NC(=O)c1ncnc(N)c1Cl)c1ncc(C(=O)Nc2cc(C(F)(F)F)c(Cl)cn2)s1 | i
16 | Cc1ccc(Cl)cc1N(CC(=O)Nc1c(F)cccc1F)S(C)(=O)=O | i
17 | O=C1c2ccc(Nc3ccc(F)cc3F)cc2CCc2ccc(OCC(O)CO)cc21 (stereo unspecified) | i
18 | CNc1nc(NCc2ccc(NS(C)(=O)=O)cc2Cl)cc(-c2ccccn2)n1 | ?
19 | CCN(CCCOc1ccc2c(Nc3cc(CC(=O)Nc4cccc(F)c4)[nH]n3)ncnc2c1)CCOP(=O)(O)O | i
20 | Cc1ccc(-c2ccc3c(ccc4sc5c(c43)NC[C@@H](C)NC5=O)n2)cn1 | i
21 | Cc1c(C(=O)Nc2ccc(N3CC(C)OC(C)C3)nc2)cccc1-c1ccc(OC(F)(F)F)cc1 (stereo unspecified) | ?
22 | Cc1nc2ccc(-n3ncc(C(=O)c4cc5ccccc5[nH]4)c3N)cc2[nH]1 | i
23 | CCOc1ccc(-c2nc(-c3cccc4c3CCC4NCCO)no2)cc1OCC (stereo unspecified) | i
24 | Cn1cc(-c2cnc3ccc4ccc(CS(=O)(=O)NCc5ccccn5)cc4c(=O)c3c2)cn1 | +
25 | N#Cc1ccc(O[C@@H]2c3ccccc3C[C@H]2N2CCC[C@@H](N)C2)c(Cl)c1 | i
26 | COc1cc(C)c(Sc2cnc(NC(=O)c3ccc(CNC(C)C(C)C)cc3)s2)cc1C(=O)N1CCN(C(C)=O)CC1 (stereo unspecified) | ?
27 | CCC1C(=O)N(C)c2cnc(Nc3ccc(C(=O)NC4CCC(N5CCN(CC6CC6)CC5)CC4)cc3OC)nc2N1C(C)C (stereo unspecified) | ?
28 | Oc1cccc(Nc2ccnc3[nH]c4ccccc4c23)c1 | +
29 | CC(Nc1ncnc2nc[nH]c12)c1cc2cccc(Cl)c2c(=O)n1-c1ccccc1 (stereo unspecified) | ?
30 | O=C1NCC2(CCN(CCc3ccccc3)CC2)O1 | i
31 | Fc1ccc(C(c2ccc(F)cc2)N2CCNCC2)cc1 | ?
32 | COc1cc2nc(-c3cc(F)ccc3O)nc(N[C@@H]3CNC[C@H]3C(C)(C)O)c2cc1OC | i
33 | CN1CCC(COc2cnc(-c3cccc(Cn4nc(-c5cccc(C#N)c5)ccc4=O)c3)nc2)CC1 | ?
34 | CC(C)(CNC(=O)c1cccc(-c2noc(C(F)(F)F)n2)c1)c1coc(-c2ccccc2)n1 | i
35 | COc1nc(C)nc(Cl)c1NC1=NCCN1 | i
36 | COC(=O)N1CCC(n2ncc3c(N4CCOCC4)nc(-c4ccc(NC(=O)Nc5ccc(CO)cc5)cc4)nc32)CC1 | i
37 | Cc1cn2c(N)c(Cl)cc(C(=O)NCC3CCN(CC(C)C)CC3)c2n1 | i
38 | CCOC(=O)C(CCc1ccccc1)NC1CSC(c2cccs2)CN(CC(=O)O)C1=O (stereo unspecified) | ?
39 | CCOC(=O)c1cnn(-c2ccc(NC(=O)C(Cl)=C(Cl)Cl)cc2)c1C(F)(F)F | i
40 | CC(C)=CCC[C@](C)(O[C@@H]1O[C@H](CO)[C@@H](O)[C@H](O)[C@H]1O)[C@H]1CC[C@]2(C)[C@@H]1[C@H](O)CC1[C@@]3(C)CC[C@H](O)C(C)(C)C3[C@@H](O[C@@H]3O[C@H](CO)[C@@H](O)[C@H](O)[C@H]3O[C@@H]3O[C@@H](C)[C@H](O)[C@@H](O)[C@H]3O)C[C@]12C (stereo partly specified) | i
41 | O=c1[nH]c2ccc(C#CCN3CCC(Cc4ccccc4)CC3)cc2[nH]1 | ?
42 | Cc1cc(N(C)C)ccc1-c1nc2ccc(-c3nc4ccc(N5CCN(C)CC5)cc4[nH]3)cc2[nH]1 | +
43 | O=C(NC[C@H](O)CN1CCc2ccccc2C1)c1cc(NC2COC2)ncn1 | ?
44 | CC[C@]1(O)CC2CN(CCc3c([nH]c4ccccc34)[C@@](C(=O)OC)(c3cc4c(cc3OC)N(C)[C@H]3[C@@](O)(C(=O)OC)[C@H](OC(C)=O)[C@]5(CC)C=CCN6CC[C@]43[C@@H]65)C2)C1 (stereo partly specified) | ?
45 | N#Cc1c(Oc2ccc(F)c(NC(=O)Cc3cccc(C(F)(F)F)c3)c2)ccc2nc(NC(=O)C3CC3)sc12 | i
46 | CCCOc1ccccc1-c1nc2n[nH]nc2c(=O)[nH]1 | i
47 | CCN1CCN(Cc2ccc(-c3cc4c(NC(C)c5ccccc5)ncnc4[nH]3)cc2)CC1 (stereo unspecified) | +
48 | CC(=O)Nc1nc(C)c(-c2ccc(Cl)c(S(=O)(=O)NCCO)c2)s1 | i
49 | CC(=O)NC(C)c1cnc(-c2cnc(Oc3ccc(OC(C)C)cc3)s2)s1 (stereo unspecified) | i
50 | COc1cc(N2CCC(N3CCN(C)CC3)CC2)ccc1Nc1ncc(Cl)c(-c2c[nH]c3ccccc23)n1 | +

Carrying on:
cpd | mol | Methyltransferases
51 | CC(C)(C)Oc1ccc(OCC2Cc3ccccc3CN2C(=O)c2cccc3ccccc23)cc1 (stereo unspecified) | ?
52 | Cc1c(CN2CCN(S(C)(=O)=O)CC2)sc2c(N3CCOCC3)nc(-c3cnc(N)nc3)nc12 | +
53 | CNCCCC1(c2ccccc2)OC(C)(C)c2ccccc21 (stereo unspecified) | i
54 | C#CCN(Cc1cc2c(=O)[nH]c(C)nc2cc1Br)c1ccc(C(=O)NCc2cccnc2)cc1 | i
55 | Cc1cc(C(=O)Nc2cccc(C(=O)Nc3cccc(C(F)(F)F)c3)c2)on1 | i
56 | CC(NCc1ccc(OCc2cccc(F)c2)cc1)C(N)=O (stereo unspecified) | ?
57 | Cc1cc(-c2nc(-c3ccc(OC(F)(F)F)cc3)no2)nn1Cc1ccnc(N2CCN(C3CC3)CC2)c1 | ?
58 | CNC(=O)c1cc(Oc2ccc(NC(=O)Nc3cc(C(C)(C)C)nn3-c3ccc4ncccc4c3)c(F)c2)ccn1 | i
59 | CC[C@H]1OC(=O)C[C@@H](O)[C@H](C)[C@@H](O[C@@H]2O[C@H](C)[C@@H](O)[C@H](N(C)C)[C@H]2O)[C@@H](CCN2C[C@H](C)C[C@H](C)C2)C[C@@H](C)C(=O)/C=C/C(C)=C/[C@@H]1CO[C@@H]1O[C@H](C)[C@@H](O)[C@@H](OC)[C@H]1OC | i
60 | COc1cc(N2CCC(N3CCN(C)CC3)CC2)ccc1Nc1ncc(Cl)c(Nc2ccccc2S(=O)(=O)C(C)C)n1 | +
61 | O=C1Nc2nc(-c3c(O)cccc3OCC3CC3)cc([C@@H]3CCCNC3)c2CO1 | ?
62 | CCOC(=O)C1(CCOc2ccccc2)CCN(Cc2ccc(O)c(Cl)c2)CC1 | i
63 | CCOc1ccn(-c2ccc(F)cc2)c(=O)c1C(=O)Nc1ccc(Oc2ccnc(N)c2Cl)c(F)c1 | i
64 | O=C1NC(=O)[C@@]2(CCOc3ccc(F)cc32)N1 | i
65 | NC(=O)[C@@H]1CC[C@H](c2ccc(OCc3ccccc3F)cc2)N1 | i
66 | Cn1c(NC[C@@H](N)Cc2ccccc2)nc(-c2ccncc2)c(-c2ccc3ccccc3c2)c1=O | i
67 | CCN1C[C@H](C)n2c(c(O)c3c(=O)n(Cc4ccc(F)c(Cl)c4)nc(C(=O)NC)c32)C1=O | i
68 | CC(C)n1cnc2c(NCCc3ccc(O)cc3)nc(-c3csc4ccccc34)nc21 | i
69 | CNC(=O)c1ccc2c(c1)CCO[C@H]2CCN1CCN(c2ccc(OC)cc2)CC1 | i
70 | O=C1N(c2ccccc2)c2ccccc2C1(Cc1ccncc1)Cc1ccncc1 | i
71 | COc1cc2c(Oc3ccc4[nH]c(C)cc4c3F)ncnc2cc1OCCCN1CCCC1 | ?
72 | Nc1nc(CC(=O)Nc2ccc(CCNC[C@H](O)c3ccccc3)cc2)cs1 | ?
73 | Cn1c(=O)c(-c2c(Cl)cccc2Cl)cc2cnc(Nc3cccc(C(=O)O)c3)nc21 | i
74 | CN1CCc2c(c3ccccc3n2Cc2ccc(C(=O)NO)cc2)C1 | +!
75 | CN1CCN(c2ccc(C(=O)Nc3n[nH]c4ccc(Cc5cc(F)cc(F)c5)cc34)c(NC3CCOCC3)c2)CC1 | i

Given field by field: four of the compounds above.
(60) COc1cc(N2CCC(N3CCN(C)CC3)CC2)ccc1Nc1ncc(Cl)c(Nc2ccccc2S(=O)(=O)C(C)C)n1
  Methyltransferases = +

(61) O=C1Nc2nc(-c3c(O)cccc3OCC3CC3)cc([C@@H]3CCCNC3)c2CO1
  Methyltransferases = ?

(62) CCOC(=O)C1(CCOc2ccccc2)CCN(Cc2ccc(O)c(Cl)c2)CC1
  Methyltransferases = i

(63) CCOc1ccn(-c2ccc(F)cc2)c(=O)c1C(=O)Nc1ccc(Oc2ccnc(N)c2Cl)c(F)c1
  Methyltransferases = i

New compounds follow.
cpd | mol | Methyltransferases
76 | COc1cc(OC)c2c(=O)[nH]c(-c3cc(C)c(OCCO)c(C)c3)nc2c1 | i
77 | Cc1ccccc1C(C(=O)NC1CCCCC1)N(C(=O)CNc1ccc(C#N)cc1)c1cccc(F)c1 (stereo unspecified) | i
78 | CCCn1ncc(CN2CCCC(C(=O)c3cccc(OC(C)C)c3)C2)c1C (stereo unspecified) | i
79 | c1ccc(N2CCN(CCc3nn[nH]n3)CC2)cc1 | i
80 | CNC(=O)c1cccc2cc(Oc3ccnc4cc(OCC5(N)CC5)c(OC)cc34)ccc12 | ?
81 | CC[C@H](NC(=O)c1c(O)c(-c2ccccc2)nc2ccccc12)c1ccccc1 | i
82 | CCN(CC)C(=O)C(c1ccccc1)N1CCN(c2ccc(NC(=O)c3ccccc3-c3cccnc3)cc2F)CC1 (stereo unspecified) | i
83 | COC(=O)c1ccc(N2CCN(C)CC2)c(NC(=O)c2cccc(OC)c2)c1 | ?
84 | O=C(c1ccc(Cl)c([N+](=O)[O-])c1)N1CCN(c2ccccc2F)CC1 | i
85 | O=C(NCC(=O)N1CCCC1)Nc1ccc2cnccc2c1 | ?
86 | Cc1coc2c1C(=O)C(=O)c1c-2ccc2c1CCCC2(C)C | +
87 | OC1(c2ccc(Cl)c(C(F)(F)F)c2)CCN(CCCC(c2ccc(F)cc2)c2ccc(F)cc2)CC1 | i
88 | CC1c2ccccc2CN1NC(=O)c1ccc(Cl)c(S(N)(=O)=O)c1 (stereo unspecified) | i
89 | N#Cc1cccc(-c2c[nH]c3ncnc(N4CCOCC4)c23)c1 | +
90 | CCN1CCN(Cc2ccc(C(=O)Nc3ccc(C)c(Oc4ccc5c(c4)CC(=O)N5)c3)cc2C(F)(F)F)CC1 | i
91 | CC(=O)c1ccc(OCC(=O)N2CCCCC2)cc1 | i
92 | Cc1cc(-c2nc3cc(F)ccc3s2)ccc1NC(=O)[C@@H](N)CCCCN | i
93 | COC(=O)c1ccc2c(c1)nc(NC(=O)c1ccccc1)n2CCCc1ccccc1 | ?
94 | Cc1csc(N(C(=O)CSc2ccc(-c3ccccc3)nn2)C2CC2)n1 | i
95 | Cc1nc(NC(=O)N2CCCC2C(N)=O)sc1-c1ccnc(C(C)(C)C(F)(F)F)c1 (stereo unspecified) | ?
96 | CC1(O)CC(c2nc(-c3ccc4ccc(-c5ccccc5)nc4c3)c3c(N)nccn23)C1 (stereo unspecified) | ?
97 | CC1=NN(c2ccccc2)C(=O)C1 | i
98 | COc1ccc(-n2c(=O)[nH]c3cc(C(=O)NCc4ccc(Cl)cc4)sc3c2=O)nc1OC | ?
99 | COc1cc2c(Oc3ccc(-c4cnc(Nc5ccc(F)cc5)n(C)c4=O)cc3F)ccnc2cc1OCCCN1CCOCC1 | i
100 | FC(F)(F)c1ccc(Nc2nc3ccc(Oc4ccnc(-c5ncc(C(F)(F)F)[nH]5)c4)cc3[nH]2)cc1 | ?
101 | CC1(C)OC(=O)C(OCC2CC2)=C1c1ccc(S(C)(=O)=O)cc1 | i
102 | CCN(CC)CCCS(=O)(=O)N[C@H](CCc1ccccc1)c1nc(Cc2ccc(Br)cc2)no1 | i
103 | COC(=O)C1=CO[C@@H](O[C@@H]2O[C@H](CO)[C@@H](O)[C@H](O)[C@H]2O)[C@@H]2[C@@H](C)[C@@H](O)C[C@H]12 | ?
104 | CC[C@H](CO)Nc1nc(Nc2cccc(-c3ccccn3)c2)c2ncn(C(C)C)c2n1 | ?
105 | CCn1c(=O)c(-c2ccn[nH]2)cc2c(C)nc(N)nc21 | i
106 | CCNC(=O)Nc1ccc2ncc(Nc3ccc(C)cc3)nc2n1 | i
